TRPML1 agonist: agonists of human TRPML1 channel; Q9GZU1; TRPML1-expressing cells, Ca2+ dye fluorescence, FDSS; host cell line not named in the record; reference of the full effect not given here; activation, % (concentration not given with the values); 410,000 tested, 0.12% active; AID 624414; in the data active = activation above about 50%; inconclusive = about 30% to 50%; inactive = below about 30%; note: 0% is about no effect; the text of the record puts the active cut at 80%
Target sequence (Q9GZU1 whole entry, looked up): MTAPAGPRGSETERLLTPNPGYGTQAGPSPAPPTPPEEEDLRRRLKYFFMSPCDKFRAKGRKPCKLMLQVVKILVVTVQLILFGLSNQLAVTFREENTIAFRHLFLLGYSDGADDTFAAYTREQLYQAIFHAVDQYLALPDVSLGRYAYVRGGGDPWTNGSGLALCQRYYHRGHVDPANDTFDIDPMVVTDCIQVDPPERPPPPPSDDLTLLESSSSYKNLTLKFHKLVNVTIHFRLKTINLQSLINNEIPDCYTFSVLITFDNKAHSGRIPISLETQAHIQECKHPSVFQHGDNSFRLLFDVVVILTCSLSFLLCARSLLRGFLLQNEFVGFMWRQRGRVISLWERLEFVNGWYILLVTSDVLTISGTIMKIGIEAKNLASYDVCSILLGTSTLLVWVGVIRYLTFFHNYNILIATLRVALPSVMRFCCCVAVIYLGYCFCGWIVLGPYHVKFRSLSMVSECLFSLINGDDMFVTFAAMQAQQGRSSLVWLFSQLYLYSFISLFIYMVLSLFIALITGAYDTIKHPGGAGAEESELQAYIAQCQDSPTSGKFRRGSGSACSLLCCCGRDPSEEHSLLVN
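Cells: TRPML1-DL, 1X Tet inducer, ~16 h at 37 degrees C/5% CO2. Dye: ABD Ca8 no-wash + quencher, 45-90 min RT. Read: 10 s baseline, compound add, 110 s agonist phase; 54-4 EC80 (4uM final), 110 s antagonist phase.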
CtBP-E1A blk: CtBP/E1A binding inhibition | AlphaScreen GST-E1A/His-CtBP binding, 1536-well; hits give low values; control for the full effect not named in the record | activity change, % (concentration not given with the values) | 340,000 tested, 0.49% active | AID 651724; in the data active means activity change below about -65%; inconclusive means about -30% to -65%; inactive means above about -30%; note: % is set by controls: 0 for no effect and ±100 for the full control effect
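Homogeneous bead-based format: GST-tagged E1A captured on glutathione donor beads, His-tagged CtBP on nickel acceptor beads; compounds precede bead addition by 2 h at 37 °C.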
D2 agonist: agonists of human D2 dopamine receptor (beta-arrestin). P14416. DiscoveRx PathHunter D2 beta-arrestin, luminescence, 90 min; 100% = 57 uM dopamine signal. AID 624465. 360,000 tested, 0.084% active. activation, % (test concentration not listed); in the data active = activation above about 40%; inconclusive = about 15% to 40%; inactive = below about 15%; note: compound concentration not given in the record; the text of the record calls up to 30% inactive
Target sequence (P14416 whole entry, looked up): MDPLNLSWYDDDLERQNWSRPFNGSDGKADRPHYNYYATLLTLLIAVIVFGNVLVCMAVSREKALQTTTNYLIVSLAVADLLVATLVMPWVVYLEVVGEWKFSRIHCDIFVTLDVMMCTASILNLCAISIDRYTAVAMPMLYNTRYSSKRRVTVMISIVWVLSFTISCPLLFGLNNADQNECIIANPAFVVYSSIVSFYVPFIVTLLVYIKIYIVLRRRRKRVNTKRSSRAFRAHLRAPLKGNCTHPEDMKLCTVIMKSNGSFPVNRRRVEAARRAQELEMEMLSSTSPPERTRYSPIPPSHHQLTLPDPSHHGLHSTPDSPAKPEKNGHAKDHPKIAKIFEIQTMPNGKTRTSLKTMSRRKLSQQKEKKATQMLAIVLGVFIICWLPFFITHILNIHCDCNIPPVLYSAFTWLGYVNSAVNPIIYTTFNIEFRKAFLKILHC
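Agonist mode: compounds alone added to overnight-plated D2 PathHunter cells for 90 min at 37 C, with 57 uM final dopamine (EC100) defining full response. Beta-arrestin recruitment detected by chemiluminescent reagent, read after 1 h at ambient temperature.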
D2 PAM: human D2 receptor positive allosteric modulation | DiscoveRx D2 beta-arrestin cells, luminescence, 90 min; 100% = 57 uM dopamine signal | 360,000 tested, 0.23% active | potentiation, % (no concentration beside the values) | P14416; active = potentiation of 50% or more; inconclusive = 30% to 50%; inactive = 30% or less;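 note: compound concentration not given in the record; tested on top of an EC20 dose of dopamine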
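PathHunter D2 cells, attached overnight at 37 deg C, received compound in DMSO plus dopamine at EC20 (50 nM final) for 90 min at 37 deg C. Beta-arrestin recruitment was read as luminescence after 1 h with detection reagent at ambient temperature.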
PINK1 expr mod: PINK1 expression modulation; PINK1 immunofluorescence, high-content cytometry, 24 h; 410,000 tested, 0.2% active; AID 624263; Potency, µM (titrated, usually from 76.6 µM), for inactives: top-dose activation (PINK1 increase), usual class: activators; active = well fitted activation curve with a large enough effect; inconclusive = small, poorly fitted or top-dose-only effect; inactive = flat fitted curve, though single readings scatter; cell line not stated here;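 note: potency is the fitted concentration of half-maximal effect; % of control where 0% means no effect; nearly all actives have a fitted effect of over 65% in size; a mitochondrial uncoupler was the plate control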
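A stable cell line was treated with compounds at 5 concentrations for 24 hours, with CCCP as control. PINK1 levels and mitochondrial localization were measured by immunofluorescence with mitochondrial, cell and nuclear markers after fixation, read by laser-scanning cytometry.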
Six1-Eya2 blk: Six1/Eya2 interaction inhibition; AlphaScreen GST-Six1/His-Eya2 binding, biochemical; hits give low values; control for the full effect not named in the record; activity change, % (no concentration beside the values); 360,000 tested, 0.56% active; in the data active = activity change below about -65%; inconclusive = about -30% to -65%; inactive = above about -30%; note: % is set by controls: 0 for no effect and ±100 for the full control effect; compound concentration not given in the record
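Homogeneous AlphaScreen proximity assay pairing GST-Six1 with His-tagged Eya2 (added as 5X mix: 250 nM and 500 nM) in 50 mM Tris pH 8.0, 300 mM NaCl, 1 mM TCEP. Glutathione donor and nickel acceptor beads; 1 h, 37 °C, dark.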
Active calls of the source: *; ? = inconclusive; . = not tested or not shown; & = joins results of further samples; [ ] = another dose, or the depositor's remark. Compounds were not picked by outcome; overall some 1.3% were active at least once.

SMILES	TRPML1 agonist	CtBP-E1A blk	D2 agonist	D2 PAM	PINK1 expr mod	Six1-Eya2 blk
CCOC(=O)N1CCN(C(=O)c2ccc3c(=O)n(Cc4ccc(Cl)cc4)c(=S)[nH]c3c2)CC1	-0.2	-19	-2.0	-3	3.4%	-2
NS(=O)(=O)c1ccc(CNC(=O)Cc2ccsc2)cc1	-0.2	-2	1.1	-14	0.0%	9
Cc1nn(S(=O)(=O)c2ccc([N+](=O)[O-])cc2)c(C)c1Sc1ccccc1	0.6	-7	1.5	1	-2.4%[38.3 µM]	-10
COc1ccc(S(=O)(=O)NCC2CCCO2)cc1C(=O)O (stereo not drawn)	0.0	-9	1.8	-1	0.9%	10
CN1CC[C@@]2([C@@]34CCN(C)C3Nc3ccccc34)c3ccccc3NC12 (stereo partly drawn)	.	3	-4.7	-126	1.0%	1
Cc1cc(NC(=O)CSc2nc3ccccc3n2CC(=O)N2CCC(C)CC2)no1	1.2	1	-4.4	-6	10.0%	-4
COc1cc(CNc2ccccc2Oc2cc(=O)n(C)c(=O)n2C)cc(OC)c1OC	-0.2	-9	-3.3	0	3.1%	-20
CC(C)(C)NC(=O)C(c1ccco1)N(Cc1ccc2c(c1)OCO2)C(=O)Cn1nnc2ccccc21 (stereo not drawn)	4.6	0	2.0	-1	3.5%[38.3 µM]	-2
CCCCn1c(N)c(N(CC)C(=O)c2ccncc2)c(=O)[nH]c1=O	3.8	2	6.2	-2	-0.5%	-1
COc1ccccc1OCC(=O)Nc1ccc2c(c1)OCO2	-0.1	1	-7.5	-7	0.9%	-1
COc1ccc(OC2C(=O)N(CCc3ccc(OC)c(OC)c3)C2c2ccc3c(c2)OCO3)cc1 (stereo not drawn)	-0.2	-16	-1.9	6	1.8%	-18
CC(C)CC(=O)C1CCCN(C(=O)c2ccc3oc(Cc4ccccc4)nc3c2)C1 (stereo not drawn)	1.9	1	-3.1	-12	0.1%	1
O=S(=O)(Oc1ccccc1N1CCCCC1)c1ccccc1	6.6	28	4.8	0	6.3%	23
CCc1ccc(N(C(=O)c2csnn2)C(C(=O)NCc2ccccc2)c2ccco2)cc1 (stereo not drawn)	3.0	-13	-1.6	-11	-1.4%	1
O=C(Cc1ccccc1)NC(=S)Nc1cc(C(F)(F)F)ccc1Cl	0.6	-1	-0.3	5	16%	8
CS(=O)(=O)c1sc(C#N)c2c1C(=O)CC(c1ccccc1)C2 (stereo not drawn)	0.2	-25	-5.3	-22	-2.8%	-6
COc1ccc2c(c1)c1nnc(SCC(=O)N3CCCCC3C)nc1n2C (stereo not drawn)	-1.5	-20	0.7	-13	-0.4%	-19
Cc1cccc(C)c1OCCCN1CCOCC1	-0.7	11	-5.3	-12	1.2%	7
CCN(C(=O)COC(=O)c1n[nH]c2ccccc12)c1ccccc1	0.6	-18	-5.1	-4	-1.3%	-2
Cc1cccc(NC(=O)c2cccc(C(F)(F)F)c2)c1	1.6	.	-0.7	-11	3.8%	4
C[C@@H]1CN([C@@H](C)CO)C(=O)c2cc(Br)cnc2O[C@@H]1CN(C)C(=O)Nc1ccc(F)cc1	.	0	-2.5	.	0.1%	-3
CCOC(=O)c1c(-c2ccccc2)c[nH]c1C	1.4	-22	-0.9	-4	-0.5%	-15
CCOC(=O)c1cc(-c2ccccc2)n(CC(=O)Nc2cccc(OC)c2)c1C	0.0	9	1.6	-14	?	4
O=C(CSc1ncc(-c2ccc(F)cc2)[nH]1)Nc1cccc(O)c1	1.5	11	1.3	-15	.	-8
Cc1ccccc1-c1nc(-c2ccc(NC(=O)c3ccc(Br)o3)cc2)no1	2.2	-4	0.7	5	11%[38.3 µM]	-1
COc1ccc2oc(-c3ccc(C)c(NC(=O)c4ccc(N5CCOCC5)c([N+](=O)[O-])c4)c3)nc2c1	0.6	-7	-0.3	5	28%[38.3 µM]	0
O=S(=O)(c1ccc(-c2nnc(SCc3nnc(-c4ccccc4)o3)o2)cc1)N1CCCC1	0.1	13	-2.0	-14	7.4%	-1
Cc1ccc(N2CC(C(=O)N/N=C/c3cccc([N+](=O)[O-])c3)CC2=O)cc1 (stereo not drawn)	0.5	5	0.0	-26	-2.2%	0
O=C(O)C(Cc1ccc(O)cc1)N1C(=O)C2CCCCC2C1=O (stereo not drawn)	0.1	2	-0.7	1	0.6%	-2
CCCc1cc(=O)[nH]c(SCC(=O)N2CCN(S(=O)(=O)c3ccccc3)CC2)n1	0.0	5	0.9	-1	-0.2%	8
COc1ccc(CCC(=O)Nc2ccc(Cn3ccnc3)cc2)cc1	0.3	-4	4.7	-2	1.1%	0
Cc1n[nH]c(=S)n(NC(=O)/C=C/C(=O)Nn2c(=S)[nH]nc(C)c2=O)c1=O	0.4	?	0.3	17	0.0%	-88*
O=C(COC(=O)C1(c2ccccc2F)CCCC1)NC1CCS(=O)(=O)C1 (stereo not drawn)	-0.1	-6	11	-6	1.1%	-1
Cc1nnn(C23CC4CC(CC(C4)C2)C3)n1	0.6	-1	0.2	-4	-1.8%[38.3 µM]	1
NC(=O)C1CCN(C(=O)CCNS(=O)(=O)c2cc(Br)cnc2N)CC1	0.1	-15	-2.8	-1	-0.7%	2
Cc1cc(OCCCn2ccnc2)cc(C)c1Cl	1.5	-3	0.2	-4	-1.5%[38.3 µM]	-6
C/C(=N\NC(=O)c1cc(-c2ccc(C)s2)nc2ccccc12)c1cccnc1	2.4	1	-0.9	-21	2.7%	1
CC(=O)c1cccc(NC(=O)NCc2ccco2)c1	-0.1	0	-2.4	-4	-0.5%[38.3 µM]	1
Cc1cc2c(s1)c1cnn(CC(=O)NCCc3ccccc3)c(=O)c1n2C	0.8	5	0.1	-6	0.6%	3
C=CCSc1nnc(NC(=O)c2ccc(NC(C)=O)cc2)s1	1.2	1	3.6	9	1.2%	0

Marked active in Six1-Eya2 blk (from the list above):
Structure	CtBP-E1A blk	D2 agonist	D2 PAM	PINK1 expr mod	Six1-Eya2 blk
Cc1n[nH]c(=S)n(NC(=O)/C=C/C(=O)Nn2c(=S)[nH]nc(C)c2=O)c1=O	?	0.3	17	0.0%	-88*

Other records follow:
SMILES	TRPML1 agonist	CtBP-E1A blk	D2 agonist	D2 PAM	PINK1 expr mod	Six1-Eya2 blk
CC1(C)CC(=O)C/C(=N/NC(=O)COc2ccc3ccccc3c2Br)C1	-0.4	-4	-2.3	-12	2.7%	-5
O=C(Nc1ccon1)c1ccc(N2CCCCC2)c([N+](=O)[O-])c1	3.5	-27	-8.2	3	-1.5%	-14
COc1ccc(-n2c(Cc3cccn3C)nnc2SCC(=O)Nc2ccc(C(C)=O)cc2)cc1	1.1	-3	2.0	10	0.7%	-21
CCOC(=O)C1(Cc2cccc(F)c2)CCN(Cc2ccon2)CC1	0.4	1	-3.5	5	2.1%	4
COC(=O)c1ccc(C(=O)Nc2ccc(F)cc2)cc1	0.2	6	-1.8	-5	0.4%	5
CC(=O)NCC1CCCN(Cc2cn(-c3ccccc3F)nc2-c2cc(C)sc2C)C1 (stereo not drawn)	0.5	-2	-2.8	-32	-0.8%	0
O=C(CSc1nc(O)c(C2CCCCC2)c(=O)[nH]1)NCC1CCCO1 (stereo not drawn)	0.2	-9	-4.0	-7	-0.1%	7
CCCN1CCN(CCCNC(=O)c2ccc3c(c2)NC(=O)c2ccccc2S3)CC1	-0.6	.	-2.3	-17	-1.5%	0
COc1ccc(N(C)S(=O)(=O)c2cccc(C(=O)NC3CCCCC3C)c2)cc1 (stereo not drawn)	1.5	-1	-0.8	-8	0.9%	7
CN(CC1CCCO1)S(=O)(=O)c1ccc(C(=O)Nc2ccc3c(c2)OCO3)cc1 (stereo not drawn)	-0.9	-4	0.8	-4	2.5%	-6
COc1ccc(CCN=c2c([N+](=O)[O-])nn(-c3cccc(C)c3)n2O)cc1OC	-0.4	2	9.2	21	-0.5%	-17
Cc1nn(Cc2nnc(SCC(=O)Nc3cccc(C(F)(F)F)c3)n2C)c(C)c1[N+](=O)[O-]	0.4	13	-1.9	-31	0.1%	1
CCOC(=O)CNC(=O)C12CC3CC(CC(C3)C1)C2	1.1	13	-8.6	9	3.2%	-6
O=C(Cn1ncc2c([nH]c3ccccc32)c1=O)N1CCN(c2ccc(F)cc2)CC1	-0.5	9	-2.0	2	6.8%	3
CCCC(=O)Nc1sc(Cc2ccccc2)c(C)c1C(N)=O	0.5	-8	-2.9	6	-0.1%	-9
Cc1c(Cl)cccc1NC(=O)C1CC(=O)N(C2CCCC2)C1 (stereo not drawn)	0.4	0	-1.7	-3	-1.1%	20
O=C(NCc1ccccc1)NC(O)C(Cl)(Cl)Cl (stereo not drawn)	0.1	-2	-3.5	-8	2.4%	0
O=C1C=C(c2ccc3c(c2)OCO3)C[C@@H](c2ccc(F)cc2)C1	-1.1	-1	2.7	1	1.6%	7
Cc1ccc(C2c3[nH]c4ccccc4c3C[C@H]3C(=O)N(c4ccccc4C(=O)NCCN4CCOCC4)C(=O)N23)cc1 (stereo partly drawn)	.	1	-4.8	-52	2.3%	-7
COc1ccc(C2/C=C\CN(S(=O)(=O)c3ccc(C)cc3)CC(=O)N2Cc2ccc(F)cc2)cc1 (stereo not drawn)	1.9&0.4	0	0.1	-8	1.1%	-6
O=c1[nH]c(COc2ccccc2)nc2ccccc12	2.4	.	-0.7	-44	9.5%	7
COC(=O)c1ccc(COc2ccc3c(C)c(C)c(=O)oc3c2)o1	1.7	-5	-1.9	-6	-1.8%[38.3 µM]	-1
COc1ccc(-c2noc(CCC(=O)N3CCN(c4ccccc4Br)CC3)n2)cc1	1.0	0	-3.5	.	0.1%	4
Cc1nn(-c2ccc(F)cc2)c2sc(C(=O)OCC(=O)N3CCC(C)CC3)cc12	-0.4	3	-0.7	-3	5.2%[38.3 µM]	2
O=C(NCC1(O)CCCCC1)C1CCC(=O)N(CCc2ccccc2)C1 (stereo not drawn)	0.4	0	-2.5	-10	-0.4%	7
Cc1cccc(NC2=Nc3ccccc3N3C2=Nc2c(c(C)nn2-c2ccccc2)C3c2ccc(O)c(O)c2)c1 (stereo not drawn)	4.7	13	5.7	6	18%	14
CCC1(C)Cc2c(sc3c2c(=O)n(C)c2nnc(SCCc4ccccc4)n32)CO1 (stereo not drawn)	0.1	7	-3.2	-9	3.7%	2
Cc1cccc(C)c1NC(=O)c1ccc(OCc2c(C)noc2C)cc1	-0.7	.	-1.3	4	6.9%	-6
O=C(CCNC(=O)c1ccccc1Cl)Nc1nc2ccccc2s1	-0.2	-4	-1.2	-5	-0.7%	3

3 records picked at random from those above, as already listed:
SMILES	TRPML1 agonist	CtBP-E1A blk	D2 agonist	D2 PAM	PINK1 expr mod	Six1-Eya2 blk
COC(=O)c1ccc(COc2ccc3c(C)c(C)c(=O)oc3c2)o1	1.7	-5	-1.9	-6	-1.8%[38.3 µM]	-1
Cc1cccc(C)c1NC(=O)c1ccc(OCc2c(C)noc2C)cc1	-0.7	.	-1.3	4	6.9%	-6
CCC1(C)Cc2c(sc3c2c(=O)n(C)c2nnc(SCCc4ccccc4)n32)CO1 (stereo not drawn)	0.1	7	-3.2	-9	3.7%	2

Compound activity as filed in PubChem BioAssay.
